Rango complex inh: prevents formation of the Rango-importin beta complex. Q14974. Rango CFP/YFP FRET sensor + importin beta, 45 min. Potency, µM (highest dose often 92.2 µM), for inactives: top-dose inhibition of complex formation. 0.031% of 340,000 active. AID 540263; active = rising FRET ratio curve, often small or poorly fitted; inconclusive = mostly compound fluorescence or quenching in the first reads; inactive = flat curves in all reads;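 also: potency is read from the fitted curve at half-maximal effect; 0% = DMSO wells and 100% = buffer wells lacking importin beta; nearly all actives have a fitted effect of over 15% in size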
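FRET biosensor (snurportin 1 IBB flanked by EYFP and cerulean), 50 nM, with compound 5 min, then 0.125 microM importin beta in PBS, 1 mM DTT, 0.02% Tween-20, 0.1% BSA. CFP/YFP ratio read after 45 min at room temperature; pre-read flags interference.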
GLA inh pH 4.5: alpha-galactosidase A (human) inhibition, pH 4.5; activity change, negative = inhibition, % at 105 µM; purified enzyme, 4-MU-alpha-Gal fluorescence, pH 4.5; 230,000 tested, under 10 active; inconclusive = small, poorly fitted or top-dose-only inhibition, or a rising curve; inactive = flat fitted curve, though single readings scatter; no compound was filed as active;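 also: 0% = full activity with enzyme and -100% = basal without enzyme; dose as in the result columns while the protocol names 77 µM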
Target sequence (P06280 whole entry, looked up): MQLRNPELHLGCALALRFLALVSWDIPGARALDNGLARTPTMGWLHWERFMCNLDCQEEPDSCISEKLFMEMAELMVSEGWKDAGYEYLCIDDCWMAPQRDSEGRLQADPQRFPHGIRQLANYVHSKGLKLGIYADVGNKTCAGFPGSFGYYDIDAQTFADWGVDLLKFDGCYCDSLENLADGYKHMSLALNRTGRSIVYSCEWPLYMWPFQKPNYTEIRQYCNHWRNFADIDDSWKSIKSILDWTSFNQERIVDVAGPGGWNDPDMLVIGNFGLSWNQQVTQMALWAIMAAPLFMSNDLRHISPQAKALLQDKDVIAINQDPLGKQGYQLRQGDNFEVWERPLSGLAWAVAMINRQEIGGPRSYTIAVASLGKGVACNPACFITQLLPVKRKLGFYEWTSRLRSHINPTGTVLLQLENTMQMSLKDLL
miR-21 reporter: raises the signal of a miR-21 reporter; Potency, µM (top dose mostly 38.3 µM), for the others: at the highest dose reporter change, positive = more light; HeLa miR-21 FLuc reporter, luciferase, 48 h; 340,000 tested, under 10 active; active = well fitted rising curve with a large enough effect; inconclusive = small, poorly fitted or top-dose-only effect; inactive = no such curve, though single readings can be large or run the other way;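 also: % of control where 0% means no effect; miR-21 action dims this reporter so a rising signal means less miR-21 action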
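Compounds were titrated across several concentrations (up to approximately 40 uM) and incubated 48 hours with HeLa miR-21-FLuc reporter cells (miR-21 target sequence downstream of FLuc, endogenous miR-21). Readout was firefly luciferase luminescence after lytic detection reagent.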
Rango release inh: inhibitors of RanGTP-induced Rango-importin beta complex dissociation; Biochemical FRET Rango-importin beta, RanGTP-induced dissociation; O95149+P62826; 0.071% of 340,000 active; Potency, µM (doses to about 46.1 µM), for the others: at the top dose activity change, negative = inhibition; active means falling FRET ratio curve, often poorly fitted, with flat reads before Ran was added; inconclusive means other falling curves, or compound fluorescence or quenching; inactive means flat or rising ratio curve;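 also: potency is read from the fitted curve at half-maximal effect; % of control where 0% means no effect; nearly all actives have a fitted effect of over 45% in size; -100% = wells without RanGTP and RCC1; the record marks most hits as doubtful in a second field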
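Quantitative HTS using a FRET biosensor: 0.1 uM Rango, 0.25 uM importin beta, 0.6 uM Ran, 2 mM GTP, 0.2 uM RCC1 final, PBS with DTT, Tween-20 and BSA. Post-read taken 45 min after Ran addition.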
* hit, by the source's call; u = inconclusive; x = no result given. Only part of the results is shown, so the mix of outcomes need not match the whole.

SMILES | Rango complex inh | GLA inh pH 4.5 | miR-21 reporter | Rango release inh
Cn1cccc1-c1nc2ccc(NC(=O)c3ccc([N+](=O)[O-])cc3)cc2[nH]1 | -1.3% | -3.6 | -2.5% | 12.0%
Cc1ccccc1CNC(=O)c1ccccc1N(C)S(=O)(=O)c1ccccc1 | 3.3% | x | -0.1% | 5.1%
Cc1cc(/C=N/NC(=O)c2ccccn2)c(C)n1-c1cccc([N+](=O)[O-])c1 | -2.7% | -0.7 | -44.6% | 11.0%
COc1cccc(/C(O)=C2\C(=O)C(=O)N(c3ccccn3)C2c2ccccc2OC)c1 (stereo unspecified) | 0.0% | -12.0 | -7.6% | 0.4%
CC(C)(C)c1ccc(C(=O)NCC(=O)OCC(=O)NC(=O)NC2CCCC2)cc1 | -0.3% | x | x | 0.6%
CS(=O)(=O)N(CC(=O)Nc1cccnc1)c1ccc2c(c1)OCCO2 | 3.4% | -0.3 | 1.6% | 14.1%
COc1ccccc1NC(=O)/C=C1\NC(=O)CS1 | -5.3% | 12.8 | -9.2% | 0.2%
CC(=O)c1cc(C#N)c(NCc2cc(-c3ccccc3)no2)nc1C | 2.4% | -0.4 | 0.5% | 4.6%
O=C(NCCc1ccccc1)c1ccccc1C(=O)NCCc1ccccc1 | -2.5% | x | x | 2.8%
CCOC(=O)c1ccc(N2CSC3=C(C#N)C(c4ccc(OC)cc4OC)CC(=O)N3C2)cc1 (stereo unspecified) | 0.7% | -12.0 | -14.8% | -1.3%
COc1cc2ccccc2cc1C(=O)Nc1nnc(-c2ccncc2)o1 | 3.7% | x | -9.1% | 0.5%
Cc1ccc(S(=O)(=O)N2CCN(C(=O)COC(=O)/C=C/c3ccc(Cl)cc3)CC2)c(C)c1 | -1.5% | x | x | -0.4%
COc1ccc(CCNC(=O)CCCCCNC(=O)N2CCn3c2nc2ccccc23)cc1OC | 3.1% | x | 5.3% | 17.3%
Cc1ccccc1CSCC(=O)c1c(N)n(C)c(=O)n(C)c1=O | -0.3% | -16.1 | -30.9% | -1.6%
O=C(OCC(=O)N1CCCCCC1)c1ccc(Cl)nc1 | 0.4% | x | x | 0.4%
CCOc1ccc(-c2c(C)sc3nc[nH]c(=O)c23)cc1 | -1.2% | x | 16.1% | -1.4%
Cc1ccnc2c(N3C(=O)C4C5C=CC(C5)C4C3=O)cccc12 (stereo unspecified) | -2.4% | 8.5 | 0.8% | 8.4%
Cc1ccc(C(=O)Nc2cccc(C(=O)N3CCOCC3)c2)cc1Cl | u | x | -20.5% | -3.6%
CCOC(=O)C1=C(N)OC2=C(C(=O)CC(C)(C)C2)C1c1ccoc1 (stereo unspecified) | -1.0% | -6.2 | -1.8% | 1.0%
CCC(=O)N1CCN(c2ccc(Cl)cc2NC(=O)Cc2ccccc2)CC1 | -0.2% | 5.7 | -17.2% | 3.6%
O=C(CSc1cccc[n+]1[O-])CSc1cccc[n+]1[O-] | 0.4% | 0.6 | 7.5% | -3.6%
N#Cc1ccsc1NC(=O)C1=COCCO1 | -0.8% | x | x | 1.6%
Cc1ccc2c(c1)N(CC(=O)NCCCN1CC(C)CC(C)C1)C(=O)c1cccnc1O2 (stereo unspecified) | -0.8% | x | -1.2% | -5.2%
C/C(CC(=O)Nc1cc(Cl)ccc1C)=N\NC(N)=O | -1.5% | -2.9 | 4.5% | -15.8%
CCCCN(C(=O)c1ccc(N(C)S(=O)(=O)c2ccc(C)cc2)cc1)c1c(N)n(CCC)c(=O)[nH]c1=O | 0.1% | x | -3.0% | -11.8%
Cc1ccc(C(=O)NCC(=O)N2CCCCCC2)cc1 | 0.8% | x | -50.7% | 2.2%
COCc1nnc(NC(=O)C2CC(=O)N(c3ccc(C)c(Cl)c3)C2)s1 (stereo unspecified) | 0.3% | x | x | 8.0%
O=C(c1cc2cc([N+](=O)[O-])ccc2s1)N1CCOCC1 | -2.8% | 2.4 | -4.3% | -14.6%
COCCCN(Cc1ccco1)C(=O)Cn1ncc2c([nH]c3ccccc32)c1=O | 2.2% | x | 15.8% | -10.7%
O=S(=O)(c1cc(Cl)ccc1Br)N1CCCCC1 | -1.0% | -3.1 | -10.6% | -1.7%

A different layout for some results above:
Rango complex inh | GLA inh pH 4.5 | miR-21 reporter | Rango release inh | structure
0.3% | x | x | 8.0% | COCc1nnc(NC(=O)C2CC(=O)N(c3ccc(C)c(Cl)c3)C2)s1 (stereo unspecified)
-2.8% | 2.4 | -4.3% | -14.6% | O=C(c1cc2cc([N+](=O)[O-])ccc2s1)N1CCOCC1
-0.8% | x | x | 1.6% | N#Cc1ccsc1NC(=O)C1=COCCO1

The listing continues.
SMILES | Rango complex inh | GLA inh pH 4.5 | miR-21 reporter | Rango release inh
CC(C)C(O)C1CCN(Cc2nc(Cc3ccccc3Cl)no2)CC1 (stereo unspecified) | 0.3% | 6.1 | -12.2% | -6.0%
O=C(NC1CCCC1)C(c1c[nH]c2ccccc12)N(C(=O)Cn1nnc(-c2ccc(Cl)cc2)n1)c1ccccc1 (stereo unspecified) | -2.6% | -3.8 | 2.5% | 11.8%
COc1c(C)cc(C(=O)C2CCCN(Cc3cccc4nccnc34)C2)cc1C (stereo unspecified) | -2.2% | 1.1 | -1.7% | -7.1%
COc1ccc(-c2nc3ccccc3s2)cc1 | -0.4% | 3.5 | 1.8% | 1.3%
O=C(COc1cccnc1[N+](=O)[O-])NCc1ccco1 | u | 0.5 | -6.4% | 0.7%
Cc1cc(C)c(S(=O)(=O)Nc2ccncc2)cc1C | 5.8% | x | -2.4% | 14.3%
CCN(CC)S(=O)(=O)c1ccc(S(=O)(=O)N2CCC(N3CCCCC3)CC2)cc1 | -0.1% | x | -2.4% | -4.2%
C=C(C)C(=O)Nc1cccc(C(C)=O)c1 | 0.6% | -8.4 | -0.1% | u
Cc1ccc(OCCOc2ccc(S(=O)(=O)N3CCCC3)cc2C(N)=O)cc1 | 1.7% | x | x | -13.3%
O=C1CSC(c2cccc(F)c2)N1c1ccccc1 (stereo unspecified) | -2.4% | x | -4.2% | -7.4%
COc1ccc(/C(C)=N\n2cnnc2)cc1 | -1.5% | 3.4 | -7.7% | -2.0%
COc1ccc(C(=O)NC(C)Cc2cnccn2)cc1OC1CCN(C(C)C)CC1 (stereo unspecified) | -1.0% | x | -3.4% | -11.1%
O=C1CCCC2=C1C(c1cccs1)CC(=O)N2c1ccc(F)cc1 (stereo unspecified) | 1.0% | -3.2 | 3.1% | 9.9%
O=C(Nc1ccnn1C1CCN(Cc2c(F)cccc2Cl)CC1)C1CCCC1 | 3.8% | x | -3.9% | 19.5%
O=[N+]([O-])c1ccc(N2CCc3ccccc3C2)nc1 | 0.2% | x | -53.3% | 0.7%
Cc1ccc(COc2ccc(S(=O)(=O)N3CCCC3)cc2C(N)=O)cc1 | 4.3% | x | 7.3% | 16.2%
CCOC(=O)C1=C(C)NC2=C(C(=O)CCC2)C1c1coc2ccccc2c1=O (stereo unspecified) | u | 4.5 | 0.8% | 2.4%
Fc1ccccc1CNC(=S)Nc1ccc(Cl)cc1 | -3.1% | -16.7 | 7.8% | -0.8%
Cc1ccc(C(O)CN2C3=NCCN3c3ccccc32)cc1 (stereo unspecified) | 3.0% | -2.7 | 2.1% | -5.5%
CN(CCc1cnn(C)c1)Cc1cn(C)nc1-c1ccccc1F | 0.2% | 10.6 | 1.7% | 10.3%
COc1ccc(/C=C/C(=O)OCC(=O)Nc2cccc(S(=O)(=O)NC3=NCCCCC3)c2)cc1 | 1.9% | x | x | 3.6%
CCc1cccc2c(C(=O)COC(=O)C3=NNC(=O)CC3)c[nH]c12 | -0.1% | 8.3 | -14.6% | -1.8%
COc1c(C)cc(C(=O)C2CCCN(C(=O)c3ccc4[nH]ccc4c3)C2)cc1C (stereo unspecified) | -0.6% | -3.9 | -5.6% | 1.4%
CC(=O)N(c1ccccc1)C1SC(=O)N(c2ccccc2)C1=O (stereo unspecified) | 0.9% | -12.2 | -4.1% | -12.7%
Cc1ccc(SCc2nnc(NC(=O)c3ccccc3)s2)cc1 | 2.4% | 4.3 | -2.0% | -5.4%
O=C(Nc1cc2c3c(c1)CC(=O)N3CCC2)c1c(F)cccc1F | 0.5% | x | x | 0.7%
O=C(c1ccco1)N1CCN(Cc2c(F)cccc2Cl)CC1 | 2.9% | x | -53.4% | -6.8%
CN(CCc1ccccc1)C(=O)c1ccc(NC(=O)Cc2ccc(NC(=O)C3CCN(C(=O)C4CCCC4)CC3)cc2)cc1 | u | x | x | 0.5%
FC(F)(F)c1nc2ncc(Cl)cc2[nH]1 | -1.7% | 4.0 | 0.1% | 1.7%
Cc1cnc([N+](=O)[O-])n1CCOC(=O)NC(=O)c1cccc(F)c1 | -1.8% | 9.5 | -0.4% | -20.6%
CC(=O)c1ccc(-c2ccc(C(=O)NC3CCCCCC3)o2)cc1 | -1.2% | 6.3 | -10.7% | 4.4%
CCC1CCCCN1CCCNC(=O)CCCOc1cc(=O)n(C)c2ccccc12 (stereo unspecified) | -3.1% | 4.5 | 3.1% | -0.3%
CC/C(=N\NS(=O)(=O)c1ccc(C)cc1)c1ccco1 | 0.4% | x | -5.3% | 3.5%
Cc1ccc(C(=O)NNC(=S)NC(=O)c2ccco2)cc1 | 0.3% | 5.3 | -4.7% | 0.9%
Cn1c(C(=O)OC(C(=O)NC2CCCCC2)c2ccncc2)cc2sccc21 (stereo unspecified) | -0.1% | 2.8 | -1.8% | 4.8%
COc1cccc(C(c2c(C)[nH]n(-c3ccccc3)c2=O)c2c(C)[nH]n(-c3ccccc3)c2=O)c1OC | 0.7% | -3.6 | -6.7% | -15.5%
O=C(CCCSc1nc2ccccc2[nH]1)N1CCN(c2ccccc2)CC1 | 4.6% | 0.5 | 20.6% | -5.3%
CCCNC(=O)NC(C)C12CC3CC(CC(C3)C1)C2 (stereo unspecified) | 5.0% | 4.1 | -12.1% | 1.5%
O=[N+]([O-])c1ccc(NC(=S)NCCc2ccc(F)cc2)cc1 | 1.9% | -20.6 | u | 7.1%
COCCN(CCOC)c1nc(-c2ccc(C)cc2)nc2ccccc12 | 5.4% | x | 1.5% | -17.9%
Nc1n[nH]c2cc(=O)n(-c3cccc(C(F)(F)F)c3)nc12 | u | -2.4 | 13.7% | u
CCCCn1c(N)c(N(CCOC)C(=O)CCCc2nc3ccccc3s2)c(=O)[nH]c1=O | -2.9% | x | x | -7.1%
CCc1cccc(CC)c1NC(=S)NCC(c1cccnc1)N(C)C (stereo unspecified) | 1.8% | 1.2 | -2.2% | -9.0%
CC(C)Cn1c(CN(Cc2ccccc2)Cc2ccccc2)nc2c1c(=O)n(C)c(=O)n2C | -1.5% | -15.8 | 1.8% | 0.5%
COc1ccc(Cl)cc1NC(=S)N1CCC(c2ccc(C)cc2)C1 (stereo unspecified) | 1.6% | -3.9 | -0.4% | 10.4%
COc1ccc(S(=O)(=O)NN=C2CCCCC2)cc1 | -8.6% | 0.2 | -0.7% | 6.8%
Cn1c(NCc2ccccc2)nc2c1c(=O)n(Cc1ccc(Br)cc1)c(=O)n2C | -1.1% | -2.7 | -6.3% | -0.3%
CC(C)N(Cc1nc(-c2ccc3c(c2)OCO3)no1)CC1CCC(=O)N1 (stereo unspecified) | -3.4% | -0.9 | 2.4% | -13.1%
COc1ccc(OC)c(Nc2nc3ccccc3n3cnnc23)c1 | -0.2% | 13.3 | -6.8% | -7.8%
COc1ccc(C)cc1Nc1nc(C)nc2sc(C)cc12 | 2.0% | x | 21.6% | 6.7%

(continued)
SMILES | Rango complex inh | GLA inh pH 4.5 | miR-21 reporter | Rango release inh
COC(=O)c1ccc(NCC(=O)N2CCCCCC2)cc1 | x | 1.5 | -14.4% | x
Cc1nn(CC(=O)NCc2cc3ccccc3[nH]2)c(C)c1[N+](=O)[O-] | -1.6% | 4.5 | 0.1% | 14.1%
CCOc1ccc2oc(C(=O)NCC(C)(C)CN(C)C)c(C)c2c1 | -1.8% | -14.5 | -13.3% | -21.2%
NC(N)=NCCCC(NC(=O)c1ccccc1)C(=O)Nc1ccc2ccccc2c1 (stereo unspecified) | 5.0% | x | x | u
COc1ccc(Cn2c(-c3ccc(C)cc3)nc3c(c(=O)c4ccccc4n3C)c2=O)cc1 | -2.0% | -4.3 | -4.6% | -8.3%
O=C(CN1C(=O)c2ccccc2S1(=O)=O)NCc1ccco1 | -0.1% | -4.4 | -1.2% | 2.3%

Screening data as filed in PubChem.
